Assay outcomes from PubChem BioAssay.
EPAC2 antag = validation of human EPAC2 antagonists; EPAC2 Rap1B BODIPY-GDP exchange, fluorescence; Potency, µM (highest dose often 112 µM), for inactives: at the top dose activity, negative = inhibition, hits mostly inhibitors; actives 1.7% (n = 16,000); AID 1645886; active = well fitted inhibition curve with a large enough effect; inconclusive = small, poorly fitted or top-dose-only effect; inactive = no such curve, though single readings can be large or run the other way;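 also: 100% = activation by cAMP agonist control; nearly all actives have a fitted effect of over 40% in size; the record reuses the description of the EPAC1 agonist screen; inactives centre near -10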
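Normalized against a 6.5 mM cAMP agonist control, compounds were tested on 100 nM EPAC2 exchanging Rap1B-bound BODIPY-GDP (250 nM) for 50 uM GDP. Fluorescence drop (ex 480, em 540 nm) was tracked at room temperature over 30 min at 5-min intervals.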
* marks the source's active call; other numbers are inactive results; ? = inconclusive; & = joins results of further samples; ! = not active in a repeat; [ ] = remark or other dose. Potency is read from the fitted curve at half-maximal effect. Not all compounds are listed; count on the stated rates, not on these rows.

smiles | EPAC2 antag
CC1(C)C2C[C@@H](O)[C@]3(C)C(CC[C@@]4(C)[C@H](c5ccoc5)C[C@H]5O[C@]543)[C@@]2(C)[C@@H](O)C[C@H]1O (stereo partly drawn) | 17.0%
C[C@@]12CCC(Cl)C[C@H]1CCC1C2CC[C@]2(C)C(=O)CCC12 (stereo partly drawn) | -13.0%
NC[C@H](CC(=O)O)c1ccc(Cl)cc1 | -14.2%
O=[N+]([O-])O[C@H]1CO[C@H]2[C@@H]1OC[C@H]2O[N+](=O)[O-] | -11.0%
C=CCN1CC[C@]23c4c5ccc(O)c4O[C@@H]2C(=O)CC[C@]3(O)[C@H]1C5 | -14.5%
CCCCC[C@@H](O)C1C(=O)OC(C)[C@H](O)/C=C/C=C/C=C/C=C/C=C(\C)C(O)C(O)C(O)C[C@H](O)C[C@H](O)C[C@H](O)C[C@H](O)C[C@@H]1O (stereo partly drawn) | 37.8%&31.4%[activator]
Nc1ccc(N=Nc2ccccc2)cc1 | ?
NNC(N)=O | -6.6%
CN1C2CCC1CC(OC(c1ccc(F)cc1)c1ccc(F)cc1)C2 (stereo not drawn) | 11.5%
ClC1C(Cl)C(Cl)C(Cl)C(Cl)C1Cl (stereo not drawn) | -12.5%&-16.1%
CCC(CO)NC(=O)C1C=C2c3cccc4[nH]cc(c34)CC2N(C)C1 (stereo not drawn) | 4.4%
c1ccc2sc(SNC3CCCCC3)nc2c1 | -29.2%
CC1(C)C(O)CC(O)[C@]2(C)C1CC(=O)[C@]1(C)C2CC[C@@]2(C)C(c3ccoc3)OC(=O)C3OC321 (stereo partly drawn) | -12.7%
Clc1cc(I)cc(Cl)c1NC1=NCCN1 | -15.9%
C[C@@H]1O[C@H](C[N+](C)(C)C)C[C@@H]1O | -8.2%
CCCN(CCC)CCc1c[nH]c2ccc(C(N)=O)cc12 | -24.1%&1.5%
CC(C)CN1CC[C@@]2(CCCN(C(=O)Oc3ccccc3)C2)C1 | -22.5%
Cc1ncc2n1-c1ccc(Cl)cc1C(c1ccccc1F)=NC2 | 12.4%
NCCc1ccccc1 | -3.0%
CN1CCC2(CC1)CCN(C(=O)c1ccco1)CC2 | -9.9%
CN(C)CCc1c[nH]c2cccc(O)c12 | 49.4%[activator][239 µM]
Clc1ccc(CSC(Cn2ccnc2)c2ccc(Cl)cc2Cl)cc1 (stereo not drawn) | 44.7µM*!
C[C@H](CN1CCOCC1)C(C(=O)N1CCCC1)(c1ccccc1)c1ccccc1 | -22.6%[239 µM]
CCN1C[C@]2(COC)[C@H](O)C[C@H](OC)[C@@]34[C@@H]5C[C@@]6(O)[C@H](OC(=O)c7ccccc7)[C@@H]5[C@@](OC(C)=O)([C@@H]([C@H](OC)[C@H]23)[C@@H]14)[C@@H](O)[C@@H]6OC | 7.5%
O=C1CN=C(c2ccccc2)c2cc([N+](=O)[O-])ccc2N1 | -12.7%
O=C(Oc1ccccc1)N1CCC2(CCCN(Cc3nccs3)C2)CC1 | -23.1%
